Mtb hypoxia rep = PubChem AID 1159583. M. tuberculosis hypoxia-regulated fluorescent reporter, fluorescence. fluorescence inhibition, % (concentration not given with the values). hit rate 0.1% among 300,000;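 active means 35 to 45% if threefold the growth effect, above 45% if 1.5-fold the growth effect; inactive means the rest, general growth blockers included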;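 further: wells of about 50 µL received 100 nL stock; 0% = vehicle wells and 100% = reference inhibitor wells; whole bacteria with a GFP reporter of the hypoxia response; strong numbers were not always called active; many hits fall short of the cut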
ugtP null kill = growth inhibition of ugtP-null S. aureus, primary screen, RN4220 ugtP deletion, OD600. 16 h; some inactives read as strong as hits. AID 1259309, 2017. growth inhibition, % (concentration not given with the values). hit rate 0.54% among 330,000;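 active means z-score under -3 and OD600 up to 0.15 on both plates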;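 further: plate controls were untreated wells for no effect and antibiotic for full effect; wells of about 80 µL received 100 nL stock; the first replicate is given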
PrP 5UTR inh = inhibition of PrP 5' UTR reporter expression | cell-based PrP 5' UTR mRNA reporter, plate reader | inhibition, % (concentration not given with the values) | hit rate 0.35% among 340,000;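 active means every replicate at 50% or more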;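 further: 0 = median of the neutral control wells; tested in H4 reporter cells; numbers are from one replicate; inactives centre near -14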
BJeLR lethal = MLPCN primary cell-based screen for lethality selective to Ras in HRASV12 cells; BJeLR (HRASV12) viability, CellTiter-Glo ATP luminescence, 48 h; reference of the scale not given here; inhibition, % (concentration not given with the values); hit rate 0.17% among 300,000;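 active means replicate mean above 50%; inconclusive means above 50% but judged a plate artefact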;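 further: 50 nL library stock added to about 25 µL; numbers are from one replicate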
Bead autofluor = compound fluorescence in toxin protease inhibitor counterscreen; compound autofluorescence counterscreen, microsphere flow cytometry; stronger effect = higher value; fluorescence intensity (no concentration beside the values); hit rate 3.1% among 360,000; AID 624483;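 active means at least 3 SD above the mean of all compounds, about 16000 in these data; inconclusive means too few beads counted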;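 further: 100 nL of 1 mM stock went into each well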
Sa RN4220 lethal = growth inhibition of S. aureus RN4220, primary screen, OD600; 16 h; inhibition, % (test concentration not listed); hit rate 0.33% among 330,000;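 active means z-score of -3 or lower and OD600 up to 0.18 on both plates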;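 further: plate controls were untreated cells for no effect and reference antibiotic for full effect; stock transfer was 100 nL into about 80 µL; one replicate is shown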
Mtb hypoxia rep growth = recorded beside Mtb hypoxia rep, whose call it bears; growth inhibition, %; measured here: M. tuberculosis growth (absorbance);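 0% = vehicle and 100% = reference antibiotic; read after six days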
Numbers without * were called inactive; ? = inconclusive; / = no result given.

SMILES | Mtb hypoxia rep | Mtb hypoxia rep growth | ugtP null kill | PrP 5UTR inh | BJeLR lethal | Bead autofluor | Sa RN4220 lethal
CCOc1ccc(CCNC(=O)CCN2C(=O)COc3ccccc32)cc1OCC | 13 | 14 | 5 | -6 | 5 | 5674 | 3.6
CC1CN(C(=O)COC(=O)CSc2ccc([N+](=O)[O-])cc2)CC(C)O1 (stereo not given) | 5 | 1 | 2 | -11 | / | / | 1.9
CCC1=Nc2cc(C(=O)NCCN3CCCC3)ccc2Sc2ccccc21 | 6 | -6 | -2 | -9 | 2 | 7341 | 4.3
CC(C)(C)C1COC(=O)CCC=CCC(CC(=O)NC(CO)Cc2ccccc2)C(=O)N1 (stereo not given) | 20 | 6 | 3 | / | / | / | 8.3
CC(=O)Oc1ccc(N2C(=O)CCC2=O)cc1 | / | / | -3 | -22 | 2 | 3030 | 0.4
COc1ccc(C2=NOC(C(=O)N3CCCc4ccccc43)C2)cc1 (stereo not given) | 10 | 9 | 9 | -14 | 5 | 11278 | 3.3
Cc1ccc(C(=O)NCC(=O)Nc2cccc(S(=O)(=O)NC3=NCCCCC3)c2)cc1C | 2 | 7 | -6 | -25 | -9 | 2615 | -1.9
O=[N+]([O-])c1cccc(S(=O)(=O)Nc2ccc3cn[nH]c3c2)c1 | -2 | 3 | -3 | -4 | / | / | 6.5
O=C(c1ccco1)N1CCN(C(=O)N2c3ccccc3Sc3ccccc32)CC1 | 2 | 7 | 6 | 34 | 32 | 7925 | 2.4
Cc1ccc(C)c(N2CCN(C(=O)c3ccccc3Br)CC2)c1 | / | / | 10 | -7 | 5 | 3070 | 4.8
COc1cc(NC(=O)c2cc3nc(-c4ccccc4)cc(-c4ccccc4)n3n2)cc(OC)c1OC | 11 | -5 | 14 | -27 | -3 | 12918 | 14
COc1cccc(CNC(=O)C2CC(=O)N(C3CCCCC3)C2)c1 (stereo not given) | -8 | 4 | -5 | -14 | 4 | 5938 | -0.6
Cc1ccc(C(=O)NCC(=O)OCC(=O)NC(C)C2CC3CCC2C3)cc1 (stereo not given) | 11 | -9 | 5 | -4 | / | ? | 5.8
COc1ccc(CN2CC34C=CC(O3)C(C(=O)O)C4C2=O)cc1 (stereo not given) | / | / | 8 | -25 | 6 | 6173 | 2.5
CCN(CC(=O)Nc1cccc(C#N)c1)CC(=O)Nc1cccc(OC)c1 | 0 | 2 | -9 | -2 | -7 | 4650 | 0.0
O=C1NC(=O)C(CC(=O)N(Cc2ccco2)C2(C(=O)NC3CCCC3)CCCCC2)N1 (stereo not given) | / | / | 3 | -27 | -2 | 2897 | -0.2
O=[N+]([O-])c1c(NCCCO)cc(N2CCN(Cc3ccc4c(c3)OCO4)CC2)c2nonc12 | 7 | 6 | 3 | -34 | 0 | 2673 | 5.0
CCOC(=O)CNc1ccc(C(=O)OCC)cc1[N+](=O)[O-] | 11 | 19 | 4 | -21 | 1 | 2073 | 4.8
O=C(CSc1nc(-c2ccccc2)nc2ccc(F)cc12)Nc1ccc(C(=O)O)cc1 | 15 | 2 | 18 | -24 | / | 4302 | 6.5
CC/C(=N/NS(=O)(=O)c1ccc(Cl)cc1)c1ccc(O)cc1 | / | / | / | 0 | -9 | 2600 | /
CCC(C)[C@H](NC(=O)NCc1cccnc1)C(=O)OC (stereo not given in full) | 7 | 7 | 5 | -20 | -4 | 5309 | 5.2
O=C1CC(c2cc([N+](=O)[O-])ccc2Cl)c2c(ccc3ccccc23)N1 (stereo not given) | / | / | / | -12 | 7 | 9006 | /
O=C(Nc1ccc(F)cc1F)Nc1sccc1-c1nc2ccccc2s1 | 5 | -7 | 11 | -16 | -7 | / | 7.3
O=C(NCc1ccccc1)C(=O)Nc1nc(C23CC4CC(CC(C4)C2)C3)cs1 | -1 | -4 | -5 | 5 | 8 | 7140 | 21
COC(=O)C1SCC2C(=O)N(Cc3cccc(C)c3)CC(=O)N21 (stereo not given) | 7 | -1 | 7 | -22 | 5 | 2621 | 2.8
COc1cccc(-n2cc(C(=O)NC(C)C)c3ccccc3c2=O)c1 | 15 | 9 | -2 | -9 | -3 | 4059 | -1.4
CC(=O)Nc1ccc(S(=O)(=O)NCCC(=O)NCC2COc3ccccc3O2)cc1 (stereo not given) | -5 | 13 | -4 | -7 | -6 | 4414 | -2.1
COc1cccc(C=Nc2ccc3c(c2)OCCO3)c1O | -75 | 5 | -5 | 4 | 10 | 3089 | 5.6
CCCCN(CC)CCCNC(=O)CN1C(=O)CSc2ccc(S(=O)(=O)N3CCOCC3)cc21 | 4 | 0 | 5 | -14 | -4 | 4333 | 5.0
COc1cccc(N2C(=O)NC(=O)/C(=C\c3cn(C)c4ccccc34)C2=O)c1 | -15 | 0 | -5 | -1 | -6 | 3836 | 0.3
COc1ccc(NC(=S)N2CCN(CCN3C(=O)c4cccc5cccc(c45)C3=O)CC2)cc1 | / | / | / | -19 | -7 | 4338 | /
COc1cc2c(cc1OC)C(c1cccc([N+](=O)[O-])c1)N(C(=O)CCC(=O)O)CC2 (stereo not given) | 3 | -9 | 0 | -16 | 3 | 3212 | -1.7
CCCCCCC1CC(CC(=O)Nc2ccc([N+](=O)[O-])cc2)C(=O)O1 (stereo not given) | 5 | -7 | -23 | -14 | 0 | 7340 | -4.7
COc1cc2c(C(=O)NCCCOC(C)C)cn(CC(C)C)c(=O)c2cc1OC | / | / | 4 | -6 | 5 | ? | -3.1
O=C(/C=C/c1ccccc1)C1=C(O)C(=O)N(CCO)C1c1ccccc1[N+](=O)[O-] (stereo not given) | 13 | -5 | -2 | 2 | -8 | 2909 | -0.4
CNc1c(NS(=O)(=O)c2ccc(CC(C)C)cc2)c(=O)oc2ccccc12 | -8 | 5 | -4 | 1 | -1 | 3579 | 0.7
O=C(Nc1ccccc1)Nc1cccc(-c2cn3cccnc3n2)c1 | 5 | 4 | 3 | -27 | -2 | 4647 | -0.2
COCCOC(=O)CC1=NC(=O)CS1 | / | / | 0 | -14 | 2 | 2760 | -1.5
O=C(CC1(O)C(=O)Nc2ccccc21)c1cccc(Br)c1 (stereo not given) | 8 | 10 | 8 | -20 | 3 | 2048 | 9.1
CN(Cc1ccccc1)CC1C2CCC(C2)C1O (stereo not given) | 3 | -2 | 7 | -19 | / | 3082 | 4.6
CCc1nonc1NC(=O)c1oc2ccc(C)cc2c1C | 0 | -9 | 8 | -73 | 4 | 4720 | 2.5
COC(=O)c1ccc(OCC2NCCc3cc(OC)c(OC)cc32)cc1 (stereo not given) | 2 | -11 | 4 | -1 | -8 | 7002 | 0.7
Cc1ccc(-c2c(C#N)c(N)nc3c2CCCCC3)o1 | 8 | 8 | -8 | -26 | -2 | 11439 | 8.5
O=C(CNC(=O)C1CC1)Nc1ccc(F)c(F)c1F | 12 | 8 | 1 | -15 | / | 3466 | 2.6
CCN(C(=O)c1cc2c(=O)n3cccc(C)c3nc2s1)C1CCCCC1 | 13 | 13 | 8 | -37 | -1 | 3964 | 7.6
NC(=O)CCC(C(=O)O)N1C(=O)c2ccc(O)cc2C1=O (stereo not given) | / | / | / | -15 | 3 | 2935 | /
Cc1ccc(S(=O)(=O)N(C)c2ccccc2C(=O)N2CCCC2)cc1 | 5 | 4 | 5 | -26 | -2 | 3920 | 4.1
CCOc1ccc(S(=O)(=O)n2nc(C)c(S(=O)(=O)N3CCOCC3)c2C)cc1 | 4 | 0 | 7 | -9 | 0 | 5471 | 1.8
COc1cc(NC2c3ccccc3C(=O)N2Cc2ccc3c(c2)OCO3)cc(OC)c1OC (stereo not given) | 5 | 8 | -5 | -5 | 15 | 5164 | -12
CCOc1ccc(CNC(=O)CCC(=O)N2Cc3cccc(OC)c3Oc3ncccc32)cc1 | 7 | 3 | 1 | -7 | -3 | 4354 | 1.2
COC(=O)c1[nH]c2ccccc2c1NC(=O)CN1CCC(C(N)=O)(N2CCCCC2)CC1 | / | / | 1 | 3 | 3 | 3477 | 2.4
Cc1ccn2c(NC3CCCC3)c(-c3cccs3)nc2c1 | 17 | 21 | 3 | -16 | 5 | 4248 | -0.2
COc1ccc(C(=O)Nc2cccc(/C=C/c3nc4ccccc4c(=O)[nH]3)c2)cc1 | / | / | / | 5 | 17 | 3740 | /
COC(=O)C(NS(C)(=O)=O)(c1c(C)[nH]c2ccccc12)C(F)(F)F (stereo not given) | 2 | 10 | 2 | -3 | -1 | 16026 | 2.9
CC(=O)c1cc(C#N)c(Oc2cccc(C(F)(F)F)c2)nc1C | / | / | -4 | -21 | 3 | 4962 | 1.9
COc1cccc(C2CC(c3ccccc3OC)n3nc(N)nc3N2)c1 (stereo not given) | / | / | -4 | 7 | 4 | 4327 | -0.1
COc1ccc(OCCCCN(C)Cc2ccccc2)cc1 | 5 | 18 | 5 | -16 | 7 | 4038 | 3.0
COc1ccc(C(=O)Nc2nccs2)cc1 | 8 | 3 | 8 | -69 | 6 | 4272 | -0.5

Exported with two lines to a compound: part of the list above
Below each compound: Mtb hypoxia rep, Mtb hypoxia rep growth, ugtP null kill, PrP 5UTR inh, BJeLR lethal, Bead autofluor, Sa RN4220 lethal
- CCc1nonc1NC(=O)c1oc2ccc(C)cc2c1C
    0, -9, 8, -73, 4, 4720, 2.5
- COC(=O)c1ccc(OCC2NCCc3cc(OC)c(OC)cc32)cc1 (stereo not given)
    2, -11, 4, -1, -8, 7002, 0.7
- Cc1ccc(-c2c(C#N)c(N)nc3c2CCCCC3)o1
    8, 8, -8, -26, -2, 11439, 8.5
- O=C(CNC(=O)C1CC1)Nc1ccc(F)c(F)c1F
    12, 8, 1, -15, /, 3466, 2.6
- CCN(C(=O)c1cc2c(=O)n3cccc(C)c3nc2s1)C1CCCCC1
    13, 13, 8, -37, -1, 3964, 7.6
- NC(=O)CCC(C(=O)O)N1C(=O)c2ccc(O)cc2C1=O (stereo not given)
    /, /, /, -15, 3, 2935, /
- Cc1ccc(S(=O)(=O)N(C)c2ccccc2C(=O)N2CCCC2)cc1
    5, 4, 5, -26, -2, 3920, 4.1
- CCOc1ccc(S(=O)(=O)n2nc(C)c(S(=O)(=O)N3CCOCC3)c2C)cc1
    4, 0, 7, -9, 0, 5471, 1.8
- COc1cc(NC2c3ccccc3C(=O)N2Cc2ccc3c(c2)OCO3)cc(OC)c1OC (stereo not given)
    5, 8, -5, -5, 15, 5164, -12
- CCOc1ccc(CNC(=O)CCC(=O)N2Cc3cccc(OC)c3Oc3ncccc32)cc1
    7, 3, 1, -7, -3, 4354, 1.2
- COC(=O)c1[nH]c2ccccc2c1NC(=O)CN1CCC(C(N)=O)(N2CCCCC2)CC1
    /, /, 1, 3, 3, 3477, 2.4
- Cc1ccn2c(NC3CCCC3)c(-c3cccs3)nc2c1
    17, 21, 3, -16, 5, 4248, -0.2
- COc1ccc(C(=O)Nc2cccc(/C=C/c3nc4ccccc4c(=O)[nH]3)c2)cc1
    /, /, /, 5, 17, 3740, /
- COC(=O)C(NS(C)(=O)=O)(c1c(C)[nH]c2ccccc12)C(F)(F)F (stereo not given)
    2, 10, 2, -3, -1, 16026, 2.9
- CC(=O)c1cc(C#N)c(Oc2cccc(C(F)(F)F)c2)nc1C
    /, /, -4, -21, 3, 4962, 1.9
- COc1cccc(C2CC(c3ccccc3OC)n3nc(N)nc3N2)c1 (stereo not given)
    /, /, -4, 7, 4, 4327, -0.1
- COc1ccc(OCCCCN(C)Cc2ccccc2)cc1
    5, 18, 5, -16, 7, 4038, 3.0
- COc1ccc(C(=O)Nc2nccs2)cc1
    8, 3, 8, -69, 6, 4272, -0.5

Compound activity as filed in PubChem BioAssay.
